Rce1 inhib – yeast Ras-converting enzyme inhibition; Q03530; yeast membranes, quenched prenylated peptide cleavage fluorescence; calls only; actives 0.27% (n = 290,000);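 active = fall in fluorescence gain of 50% or more versus controls, with final raw signal at or below 3038400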;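 also: plate controls were neutral control wells for no effect and wells lacking membranes for full effect; tested at 10 µM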
MT1-MMP act inh – MT1-MMP (human) activation inhibition. actives 0.061% (n = 360,000). HT1080 RFP-PRO-GFP cells, GFP/RFP ratio fluorescence, overnight; percent of plate control window, DMSO zero. GFP/RFP ratio change, % at 20 µM;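 active = GFP/RFP ratio change of at least 30% with cell ATP level not reduced by more than half and red fluorescence within 50% of control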; also: strong numbers were not always called active
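Assay system: RFP-PRO-GFP reporter HT1080 cells; read-out basis: GFP/RFP fluorescence ratio; benchmarks: DMSO wells and RFP-L50D-GFP cells; doses: 20 µM single dose, 1% DMSO; schedule: overnight cell settling, then overnight compound exposure, 37 °C, 5% CO2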
Env fusion inh – HIV envelope-mediated fusion inhibition | actives 1.1% (n = 360,000) | inhibition, % at 12.3 µM | HeLa-JRFL Env/CEM21 cell fusion, luciferase;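 active = mean replicate inhibition score of at least 50 and every replicate individually at or above 50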;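 also: 0% = plate neutral controls and 100% = maraviroc near 300 nM; one replicate is shown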
PABP FP inh – PABP-poly(A) binding inhibition; AID 2014; PABP-poly(A) RNA binding, fluorescence polarization; P11940; actives 1% (n = 290,000); inhibition, % at 35 µM;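 active = 50% or more with normal probe brightness, or confirmed in later tests; about a fifth of its hits are not listed in these tables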;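 also: calls also rest on retests at 20 µM and on dose response follow-up; controls were probe without protein and protein plus probe with vehicle; some compounds called inactive have numbers as strong as hits; many hits fall short of the cut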
Target sequence (P11940 whole entry, looked up): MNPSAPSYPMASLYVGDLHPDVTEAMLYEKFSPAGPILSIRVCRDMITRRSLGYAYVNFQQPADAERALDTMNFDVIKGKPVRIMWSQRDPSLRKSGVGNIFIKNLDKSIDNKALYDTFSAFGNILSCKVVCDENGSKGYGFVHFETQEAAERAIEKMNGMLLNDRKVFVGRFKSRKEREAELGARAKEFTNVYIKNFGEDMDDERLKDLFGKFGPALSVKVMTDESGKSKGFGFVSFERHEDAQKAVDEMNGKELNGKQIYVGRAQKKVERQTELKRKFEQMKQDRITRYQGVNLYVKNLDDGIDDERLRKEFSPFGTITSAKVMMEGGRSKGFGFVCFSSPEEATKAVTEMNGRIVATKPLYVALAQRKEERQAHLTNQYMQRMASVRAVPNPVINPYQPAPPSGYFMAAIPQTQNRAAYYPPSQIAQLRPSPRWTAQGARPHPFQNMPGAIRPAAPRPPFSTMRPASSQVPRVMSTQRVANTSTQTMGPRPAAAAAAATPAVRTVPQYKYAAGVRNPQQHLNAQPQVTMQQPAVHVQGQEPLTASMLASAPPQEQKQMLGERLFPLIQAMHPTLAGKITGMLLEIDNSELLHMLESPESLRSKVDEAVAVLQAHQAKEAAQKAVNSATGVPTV
Yeast UUG start – modulators of start codon recognition fidelity in yeast; activity score, % at 18.7 µM; S. cerevisiae UUG-firefly luciferase reporter, luminescence/redox ratio; AID 602363; actives 0.13% (n = 350,000);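 active = replicate mean at a twofold rise or more, about +100% in these data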;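 also: firefly luciferase made from a UUG start codon reports start codon fidelity; reporter light over untreated wells divided by growth signal over untreated wells; some hits fall short of that in this replicate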
eIF4H inh – inhibitors of RNA binding by human eIF4H; Q15056; AID 2012; eIF4H fluorescence polarization binding assay; actives 0.94% (n = 290,000); inhibition, % at 35 µM;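 active = 50% or more with normal probe brightness, or confirmed in later tests; about a fifth of its hits are not listed in these tables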;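 also: calls also rest on retests at 20 µM and on dose response follow-up; 0% = protein and probe with vehicle and 100% = probe without protein; strong numbers were not always called active; many hits fall short of the cut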
CSC inhib – cancer stem cell inhibition | cancer stem cell-like cells viability, luminescence | inhibition, % at 7.5 µM | actives 1.1% (n = 300,000) | AID 2717;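 active = mean at 75% or more and at least half the replicates too; tested in HMLE shEcad cells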;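 also: 0% = median of negative and 100% = median of positive control wells; the first replicate is given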
eIF4H inh retest – second read-out of eIF4H inh, no call of its own (marks repeat the call); inhibition, %; compound at 20 µM; confirmation average;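 mean of two retest wells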
PABP FP inh retest – further read-out of PABP FP inh, marked with its call; inhibition, %; compound at 20 µM; confirmation repeats;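 mean of two retest wells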
MT1-MMP act inh RFP – recorded beside MT1-MMP act inh, whose call it bears; RFP signal change, %; measured here: RFP expression control read;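 0 = vehicle wells; hits needed this value within 50% of zero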
* = called active by the depositor; i = inactive; x = no result given.

SMILES	Rce1 inhib	MT1-MMP act inh	MT1-MMP act inh RFP	Env fusion inh	PABP FP inh	Yeast UUG start	eIF4H inh	CSC inhib	others
CN1C(C(=O)NCc2ccccc2)CC2Cn3c(nc4cc5ccccc5cc43)C21 (centres undefined)	i	9	-2	-13	0	-21	-4	5
CNC(=S)NNC(=O)c1sccc1C	i	-2	0	-70	4	-21	-2	-8
O=C(Nc1ccc(Oc2c(F)c(F)c(F)c(F)c2F)cc1)OC1CCN2Cc3ccccc3N=C12 (centres undefined)	i	-40	-30	x	8	-1	-5	104*
CC(=O)C1=C(c2ccccc2)NC(=S)NC1c1cc(Cl)c(OC(C)C)c(Cl)c1 (centres undefined)	i	-18	-20	14	-5	-14	-5	31
O=c1c2cn[nH]c2nc(SCc2cc(=O)n3cc(Br)ccc3n2)n1-c1ccc(Br)cc1	i	-9	-9	-55	-7	x	-3	x
O=c1c2cc3c(cc2[nH]c(=S)n1CCN1CCOCC1)OCO3	i	4	5	-48	-2	-10	-2	-5
COc1cccc2sc(Nc3nnc(-c4ccc(F)cc4)o3)nc12	i	-1	-7	-11	1	-10	17	107*
Cc1ccc(OCC(=O)N/N=C\c2cn(C)c3ccccc23)c([N+](=O)[O-])c1	i	0	-2	0	-3	-13	-6	9
CCOC(=O)C1CCN(C(=O)Cn2cc(C(=O)c3ccco3)c3ccccc32)CC1	i	2	-2	x	-6	x	-4	-3
COc1ccccc1NC(=O)CN1CCOCC1	i	2	4	5	-1	-13	0	-14
CCn1c(=O)n(Cc2ccco2)c(=N)c2c3c(sc21)COC(C)(C)C3	i	3	-2	13	0	-6	-7	3
CCNC(=S)NNC(=O)c1cc(C)on1	i	-4	2	-38	-6	-9	-3	-2
CC(=O)Nc1ccc(OS(=O)(=O)c2ccccc2C)cc1	i	3	3	13	-1	x	0	-8
Cc1ccc(-c2nc(C3CCN(S(C)(=O)=O)CC3)no2)cc1	i	-1	-3	x	5	-15	-2	-2
O=C(CNC(=O)c1ccc(Cl)cc1Cl)OCc1nnc(-c2ccccc2)o1	i	2	5	x	x	x	x	-19
CC(=O)c1cccc(NC(=O)COC(=O)COc2c(Cl)cc(Cl)c3ccc(C)nc23)c1	i	5	5	-14	-2	x	-7	x
COc1cc(OC)nc(C(NC(=O)C2CCN(Cc3ccc(Oc4ccccc4)cc3)CC2)c2ccc(F)cc2)n1 (centres undefined)	x	-4	-13	10	x	-5	x	x
Cc1c(NC(=O)C(c2ccccc2)c2ccccc2)cccc1C(=O)O	i	-2	2	2	0	-5	-2	-3
COc1cccc(COC(=O)C2CCN(S(=O)(=O)c3ccc(C)cc3C)CC2)c1OC	i	4	1	-232	x	-18	x	-7
O=C(CSc1ccc2c(c1)OCCO2)NCC1CCCO1 (centres undefined)	i	1	-2	7	-12	-21	5	-8
CCc1ccccc1OCC(=O)NC1CCCC1	i	1	0	-8	-6	-10	0	x
O=C1c2cccc3cccc(c23)C(=O)N1c1ccc(O)cc1	i	-2	-3	-5	6	-9	-4	-7
NS(=O)(=O)c1ccc(NS(=O)(=O)c2ccc(Br)cc2)cc1	i	3	5	0	12	-11	7	-9
O=C1C(Cl)=C(N2CCOCC2)C(=O)N1c1ccccc1	i	2	3	x	6	-22	-13	-4
CS(=O)(=O)NC1CCN(Cc2ccccc2)CC1	i	-7	4	x	-9	-23	-5	5

Continued, starting with the last 6 of the part before.
SMILES	Rce1 inhib	MT1-MMP act inh	MT1-MMP act inh RFP	Env fusion inh	PABP FP inh	Yeast UUG start	eIF4H inh	CSC inhib	others
O=C(CSc1ccc2c(c1)OCCO2)NCC1CCCO1 (centres undefined)	i	1	-2	7	-12	-21	5	-8
CCc1ccccc1OCC(=O)NC1CCCC1	i	1	0	-8	-6	-10	0	x
O=C1c2cccc3cccc(c23)C(=O)N1c1ccc(O)cc1	i	-2	-3	-5	6	-9	-4	-7
NS(=O)(=O)c1ccc(NS(=O)(=O)c2ccc(Br)cc2)cc1	i	3	5	0	12	-11	7	-9
O=C1C(Cl)=C(N2CCOCC2)C(=O)N1c1ccccc1	i	2	3	x	6	-22	-13	-4
CS(=O)(=O)NC1CCN(Cc2ccccc2)CC1	i	-7	4	x	-9	-23	-5	5
CN(C)S(=O)(=O)c1cccc(NC(=O)CCSc2ccc(Cl)cc2)c1	i	-1	-11	-10	11	5	10	9
Cc1cc(C)n(-c2nc(NCCC(C)C)c3c4c(sc3n2)COC(C)(C)C4)n1	i	-15	-15	22	-6	x	3	x
Cc1occc1C(=O)NNC(=S)Nc1ccccc1	i	6	1	x	-4	-26	-2	-10
CNC(=O)c1cc(S(=O)(=O)Nc2ccc3c(c2)OCCO3)ccc1C	i	2	-7	-20	3	-9	-3	-12
Cc1ccc(C(=O)Nc2ccc(O)c(C(=O)O)c2)o1	i	-1	0	-29	9	-11	9	x
COc1ccc(NS(=O)(=O)c2cc(C(=O)N3CCC3)ccc2C)cc1	x	-2	4	8	x	-9	x	-10
CC(C)CNC(=O)CC(NCC(C)C)C(=O)O (centres undefined)	i	x	x	x	81	x	11	-7	eIF4H inh retest=-5;PABP FP inh retest=-3
CCC1CCC2(CC1)NC(=O)N(CC(=O)N1CCc3ccccc31)C2=O (centres undefined)	x	-1	-4	19	x	0	x	-19
CCc1nc2ccccc2c(C(=O)OC2CCOC2=O)c1C (centres undefined)	i	-1	1	0	-2	-8	-5	-14
O=C(NCC1CCCO1)c1sc2ccccc2c1Cl (centres undefined)	i	-4	-16	x	4	-16	3	6
Nc1c(C(=O)c2ccc(Cl)cc2)sc2c1c(=O)[nH]c(=O)n2-c1ccccc1	i	1	1	-7	7	-6	-13	5
O=C(Nc1ccc(F)cc1)c1cccc2c1C(=O)N(CC1CCCO1)C2 (centres undefined)	i	5	2	17	-11	-12	-13	-10
CN(CC(=O)NCc1ccco1)S(=O)(=O)c1ccc(F)cc1	i	2	3	15	3	-8	-4	-4
COc1ccc(CNC(=O)CN(C(=O)CCC(=O)Nc2ccccn2)c2ccc3c(c2)OCO3)cc1	i	-4	-2	-10	7	5	1	3
CCOC(=O)C1=C(C)OC(N)=C(C#N)C1c1c(C)nn(-c2ccccc2)c1Cl (centres undefined)	i	-4	-2	0	0	-9	-8	-17
CCOC(=O)N1CCc2c(sc3nc4n(c(=O)c23)N=C(C)CS4)C1	i	2	0	x	-4	12	-4	15
O=C(COc1ccccc1)NS(=O)(=O)c1ccccc1	x	2	4	4	13	-13	-6	-2
Cc1ccc(NS(=O)(=O)c2cc(-c3cc(C)no3)ccc2C(C)C)nc1	i	-2	2	0	2	7	22	-20
O=C(OCCCOC(=O)c1ccccc1O)c1ccccc1O	i	x	x	0	6	x	-12	4
Cc1onc(-c2ccccc2Cl)c1C(=O)N1CCCC1	i	-1	10	0	-5	-1	-18	-4
O=C(Nc1ccncc1)c1cccc(F)c1	i	4	-2	x	5	-15	0	x
CCCCOc1ccc(S(=O)(=O)NCc2csc(C)n2)cc1	i	-5	-16	x	-10	-6	-3	2
O=C(Nc1ccc(N2CCOCC2)cc1)C1CC(=O)N(c2ccc(F)cc2)C1 (centres undefined)	i	0	3	21	2	8	-7	21
O=C(c1ccc(S(=O)(=O)N2CCCC2)cc1)N1CCN(c2ccccc2F)CC1	i	3	-5	-22	7	7	12	11
Cc1occc1C(=O)N1CCN(c2ccccc2)CC1	i	-4	9	x	11	-7	12	-7

Molecules above with bromine (two):
SMILES	Rce1 inhib	MT1-MMP act inh	MT1-MMP act inh RFP	Env fusion inh	PABP FP inh	Yeast UUG start	eIF4H inh	CSC inhib	others
O=c1c2cn[nH]c2nc(SCc2cc(=O)n3cc(Br)ccc3n2)n1-c1ccc(Br)cc1	i	-9	-9	-55	-7	x	-3	x
NS(=O)(=O)c1ccc(NS(=O)(=O)c2ccc(Br)cc2)cc1	i	3	5	0	12	-11	7	-9

Next section:
SMILES	Rce1 inhib	MT1-MMP act inh	MT1-MMP act inh RFP	Env fusion inh	PABP FP inh	Yeast UUG start	eIF4H inh	CSC inhib	others
CC(NC(=O)C1CCCCC1)C(c1cccs1)N1CCN(C)CC1 (centres undefined)	i	-5	1	-54	4	-20	2	6
N#Cc1ccc(NC(=O)Cn2cnc(S(=O)(=O)N3CCCCC3)c2)cc1	i	0	4	12	9	-16	-4	-16
COc1cc2c(cc1NC(=O)CN(C)Cc1nc3ccccc3c(=O)[nH]1)oc1ccccc12	i	0	-12	-168	-2	-17	20	20
C[C@H](NC(=O)c1nc[nH]c1C(=O)N1CCNCC1)C(=O)OCc1ccccc1	i	-1	-1	21	x	-9	x	-8
COc1ccc(CCNS(=O)(=O)c2cccc([N+](=O)[O-])c2)cc1	i	3	4	10	-4	-4	-6	-15
Cc1ccccc1NC(=O)NCCCN1CCN(C)CC1	i	3	2	-2	-15	1	-6	-12
Cc1ccc(N(C(=O)C2CCCC2)C2C=CS(=O)(=O)C2)cc1 (centres undefined)	i	4	3	x	-6	-17	2	x
COc1ccccc1-c1nc(SCC(=O)Nc2ccccc2F)n[nH]1	i	-4	-2	70*	-9	-7	-12	6
CCOCCOCN(C#N)c1nc(OC)nc(N(C)C)n1	i	-1	3	1	-3	-17	5	-15
CCOC(=O)c1c(S(=O)(=O)N2CCCCC2C)c(C)n(C)c1C (centres undefined)	i	-1	3	2	10	-2	0	-9
COc1ccccc1NC(=O)CN1C(=O)C(C)SC(C)C1=O (centres undefined)	i	-1	1	18	-10	-6	-5	-5
CC(C)(C)c1ccc(Cn2nnc3c(=O)[nH]c(C4CCCN(C(=O)c5ccco5)C4)nc32)cc1 (centres undefined)	i	0	-5	35	-4	10	-8	11
Cc1ccc(CN2C(=O)CSc3ccc(C(=O)NCCN4CCOCC4)cc32)cc1	i	0	0	x	3	-10	8	-6
Cc1ccc2nc(SCC(=O)NCc3ccccc3Cl)nc(=O)n2c1	i	3	7	-57	x	x	x	-9
COc1ccc(-c2coc3c(CN4CCCCC4C)c(O)ccc3c2=O)cc1 (centres undefined)	i	-3	-3	13	28	x	20	-6
COc1ccc2[nH]c(=O)c(C(c3nnnn3C3CCCCC3)N3CCN(C)CC3)cc2c1 (centres undefined)	x	1	3	-43	-4	-9	-10	x
O=C(COC(=O)c1cccc(Br)c1)NCCc1ccccc1	i	3	9	4	-3	1	6	-5
COc1ccc2cc(CO)c3cc(OC)c(OC)cc3c2c1	x	6	-7	12	x	-3	x	6
C=CCNc1nc(-c2c(C)nc3ncccn23)cs1	i	5	0	-2	7	1	14	-33
CNS(=O)(=O)c1ccc(C)cc1	i	9	7	4	-8	-8	3	-7
O=C(N/N=C/c1ccc(C(=O)O)cc1)C(=O)N1CCCCCC1	x	0	2	-26	-7	-11	2	-12
O=C(OCC(=O)N(c1ccccc1)C1CCCCC1)c1ccc(CO)cc1	x	-3	-1	3	x	-1	x	60
Cn1c2ccccc2c(=O)c2cc(NCCCN3CCOCC3)ccc21	x	12	5	-73	x	-10	x	20
CC(=O)N1CCN(S(=O)(=O)c2cccc(C(=O)OCC(=O)NCc3ccccc3Cl)c2)CC1	x	4	7	4	x	-6	x	x
O=C(/C=C/c1ccc2c(c1)OCO2)Nc1cccnc1	i	-1	-4	-62	-4	x	-1	83*
N#CC1=C(N)NC(SCC(=O)c2ccccc2)=C(C#N)C12CCCC2	i	-3	-2	6	11	x	2	9
Cc1ccc(-n2c(CSc3nc(C)cc(C)n3)n[nH]c2=S)cc1	i	1	4	3	3	x	2	3
CCOc1ccc(C(NC(=O)CC)c2c(O)ccc3ccccc23)cc1 (centres undefined)	i	-5	-5	2	-11	-1	0	47
Cc1ccc(C(=O)Nc2ccc(Br)cc2)cc1S(=O)(=O)Nc1ccccn1	i	2	-10	-5	-10	6	-4	-5
NS(=O)(=O)c1ccc(CCNC(=O)C2Cc3ccccc3CN2C(=O)c2ccco2)cc1 (centres undefined)	i	-3	0	-36	-2	1	9	9

High-throughput results deposited in PubChem BioAssay by several laboratories.
